Screens (PubChem)
MLL AF4-AF9 inh – MLL-AF4/AF9 protein interaction inhibition. inhibition, % at 10 µM. AlphaScreen, biotin-AF4 peptide binding to FLAG-AF9. 0.47% of 350,000 active;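 active = every replicate reaching a set inhibition limit, whatever the replicate mean, cut at about 25% in these data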;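 note: 0% = plate neutral control median and 100% = total signal loss; the record names both 10 and 1 µM as test concentration; the first replicate is given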
Target sequence (P42568 whole entry, looked up): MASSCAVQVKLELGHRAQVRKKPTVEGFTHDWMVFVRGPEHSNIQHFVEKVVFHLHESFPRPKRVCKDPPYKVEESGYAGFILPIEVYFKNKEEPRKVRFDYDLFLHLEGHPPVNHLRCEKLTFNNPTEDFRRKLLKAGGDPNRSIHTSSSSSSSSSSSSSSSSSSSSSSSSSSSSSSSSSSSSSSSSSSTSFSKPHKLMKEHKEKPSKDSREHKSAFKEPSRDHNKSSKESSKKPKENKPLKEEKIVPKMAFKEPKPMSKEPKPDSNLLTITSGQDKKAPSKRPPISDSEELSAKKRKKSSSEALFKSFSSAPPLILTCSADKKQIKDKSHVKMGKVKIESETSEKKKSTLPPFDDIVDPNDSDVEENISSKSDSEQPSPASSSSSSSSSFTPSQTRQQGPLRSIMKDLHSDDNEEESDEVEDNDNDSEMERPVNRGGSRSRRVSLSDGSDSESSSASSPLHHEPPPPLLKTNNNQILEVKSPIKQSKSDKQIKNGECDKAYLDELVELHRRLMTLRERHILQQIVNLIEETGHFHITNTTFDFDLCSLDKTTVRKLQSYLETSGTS
An asterisk follows results filed as active.

MLL AF4-AF9 inh | Molecule
-0.4 | O=C(N[C@H]1CC[C@@H](CCn2cc(C3CCCCC3)nn2)O[C@H]1CO)c1cccnc1
-1.8 | C[C@H]1CN([C@@H](C)CO)C(=O)c2cccc(NC(=O)c3nc4ccccc4s3)c2O[C@H]1CN(C)CC1CCCCC1
4.3 | CCCC#Cc1cnc2c(c1)C(=O)N([C@H](C)CO)C[C@H](C)[C@@H](CN(C)CCC)O2
0.7 | COC(=O)C1=CN(c2ccc(F)cc2)C(N)=C(C#N)C1c1ccc(-c2ccccc2)cc1 (centres undefined)
-16 | CO[C@H]1CN(C)C(=O)c2ccc(NS(C)(=O)=O)cc2OC[C@@H](C)N(Cc2cncnc2)C[C@@H]1C
-7.8 | C[C@@H]1CN([C@@H](C)CO)S(=O)(=O)c2ccc(C#C[C@@H](C)O)cc2O[C@@H]1CN(C)C(=O)Cc1ccccn1
-2.1 | Cc1ccc(S(=O)(=O)N2CC[C@H]3[C@@H](C2)C(=O)C[C@@H](c2ccccc2)N3S(=O)(=O)c2ccc(C)cc2)cc1
5.5 | CN(C)C(=O)c1ccc(-c2ccc([C@H]3[C@H](CO)N4CCCCN(CCC(F)(F)F)C[C@@H]34)cc2)cc1

(more compounds)
MLL AF4-AF9 inh | Molecule
-0.5 | COC(=O)c1c(CC[C@@H](CO)NC(=O)N[C@H](Cn2cc(-c3cncn3C)nn2)C(C)C)oc(C(C)=O)c1C(=O)OC
8.5 | C[C@@H]1CN([C@@H](C)CO)C(=O)c2cc(NC(=O)Cn3cnnn3)ccc2O[C@H]1CN(C)Cc1ccc(-c2ccccc2)cc1
-2.1 | C[C@@H]1CN([C@@H](C)CO)C(=O)c2cc(-c3ccccc3)cnc2O[C@@H]1CN(C)C(=O)C1CCOCC1
-1.2 | O=C(C[C@@H]1CC[C@H](NC(=O)CC2CC2)[C@@H](CO)O1)NCc1ccc(Cl)cc1
-0.3 | C[C@@H]1CN([C@@H](C)CO)C(=O)c2cccc(NC(=O)C3CCCCC3)c2O[C@@H]1CN(C)C(=O)Nc1cccc2ccccc12
-2.5 | Cc1ccc(S(=O)(=O)Nc2ccc3c(c2)C(=O)N([C@@H](C)CO)C[C@H](C)[C@@H](CN(C)C(=O)CCC(F)(F)F)OCCCC[C@H](C)O3)cc1
-3.6 | Cc1cc(F)cc(-c2cc(C(=O)NCc3cccc(Cl)c3)[nH]n2)c1
1.5 | CCOc1ccccc1C(=O)N1CCC[C@@H]1C(=O)N1CCC[C@H]1C(=O)NCc1ccccc1

Reformatted field by field: part of the list above
molecule: C[C@@H]1CN([C@@H](C)CO)C(=O)c2cc(NC(=O)Cn3cnnn3)ccc2O[C@H]1CN(C)Cc1ccc(-c2ccccc2)cc1
  MLL AF4-AF9 inh: 8.5

molecule: C[C@@H]1CN([C@@H](C)CO)C(=O)c2cc(-c3ccccc3)cnc2O[C@@H]1CN(C)C(=O)C1CCOCC1
  MLL AF4-AF9 inh: -2.1

molecule: O=C(C[C@@H]1CC[C@H](NC(=O)CC2CC2)[C@@H](CO)O1)NCc1ccc(Cl)cc1
  MLL AF4-AF9 inh: -1.2

molecule: C[C@@H]1CN([C@@H](C)CO)C(=O)c2cccc(NC(=O)C3CCCCC3)c2O[C@@H]1CN(C)C(=O)Nc1cccc2ccccc12
  MLL AF4-AF9 inh: -0.3

The listing picks up, repeating the 7 entries before the break.
MLL AF4-AF9 inh | Molecule
8.5 | C[C@@H]1CN([C@@H](C)CO)C(=O)c2cc(NC(=O)Cn3cnnn3)ccc2O[C@H]1CN(C)Cc1ccc(-c2ccccc2)cc1
-2.1 | C[C@@H]1CN([C@@H](C)CO)C(=O)c2cc(-c3ccccc3)cnc2O[C@@H]1CN(C)C(=O)C1CCOCC1
-1.2 | O=C(C[C@@H]1CC[C@H](NC(=O)CC2CC2)[C@@H](CO)O1)NCc1ccc(Cl)cc1
-0.3 | C[C@@H]1CN([C@@H](C)CO)C(=O)c2cccc(NC(=O)C3CCCCC3)c2O[C@@H]1CN(C)C(=O)Nc1cccc2ccccc12
-2.5 | Cc1ccc(S(=O)(=O)Nc2ccc3c(c2)C(=O)N([C@@H](C)CO)C[C@H](C)[C@@H](CN(C)C(=O)CCC(F)(F)F)OCCCC[C@H](C)O3)cc1
-3.6 | Cc1cc(F)cc(-c2cc(C(=O)NCc3cccc(Cl)c3)[nH]n2)c1
1.5 | CCOc1ccccc1C(=O)N1CCC[C@@H]1C(=O)N1CCC[C@H]1C(=O)NCc1ccccc1
2.7 | CN1C(=O)c2cc(NC(=O)c3ccc(F)cc3)ccc2OC[C@@H]2O[C@H](CC(=O)NC3CCC3)CC[C@H]21
-0.3 | CNC[C@H]1OCCCC[C@@H](C)Oc2ccc(NC(=O)Nc3c(C)noc3C)cc2C(=O)N([C@@H](C)CO)C[C@@H]1C
-0.8 | COc1ccc(OCCNC(=O)C2(C)CCN2Cc2ccc(SC)cc2)cc1 (centres undefined)
-11 | C[C@H]1CN([C@@H](C)CO)C(=O)Cc2cc(NC(=O)Nc3ccc(F)cc3)ccc2O[C@@H]1CN(C)Cc1ccc(-c2ccccc2)cc1
-1.2 | C[C@@H]1CN([C@H](C)CO)C(=O)c2cc(NC(=O)CCC(F)(F)F)ccc2O[C@@H](C)CCCCO[C@H]1CN(C)S(=O)(=O)c1ccc(Cl)cc1
0.1 | CCOC(=O)C1=CCN(S(=O)(=O)c2ccccc2)C1c1ccc(Cl)cc1 (centres undefined)
5.4 | C[C@H](CO)N1C[C@H](C)[C@H](CN(C)C(=O)CCCN(C)C)OCCCC[C@H](C)Oc2ccc(NC(=O)Nc3ccc(F)cc3)cc2C1=O
1.4 | CCC(=O)N(C)C[C@@H]1Oc2cc(-c3ccccc3)ccc2S(=O)(=O)N([C@H](C)CO)C[C@@H]1C

Remaining list, next part.
MLL AF4-AF9 inh | Molecule
6.7 | COc1ccc(CN(C)C[C@H]2Oc3c(NC(=O)c4ccc(-c5nccs5)cc4)cccc3C(=O)N([C@@H](C)CO)C[C@H]2C)cc1
0.7 | CCCNC(=O)[C@@H]1[C@@H](CO)[C@@H]2Cn3c(ccc(C4=CCCC4)c3=O)[C@@H]2N1CCC(F)(F)F
2.0 | O=C(NC1CCCCC1)N[C@H]1CC[C@H](CCNS(=O)(=O)c2ccc(F)cc2)O[C@@H]1CO
0.0 | COc1ccc(NC(=O)N2C[C@H](O)COC[C@@H]3O[C@@H](CC(=O)NCc4ccncn4)CC[C@H]32)cc1
-0.6 | C[C@@H]1CN([C@@H](C)CO)C(=O)CCCn2cc(nn2)CO[C@H]1CN(C)S(=O)(=O)c1ccc(F)cc1
-2.2 | CO[C@H]1CN(C)C(=O)c2ccc(NC(=O)c3cccc(F)c3)cc2OC[C@H](C)NC[C@@H]1C
1.7 | C[C@@H]1CN([C@H](C)CO)C(=O)c2cc(N(C)C)ccc2O[C@H]1CN(C)Cc1ccc(C(=O)O)cc1
0.9 | O=C(C[C@H]1CC[C@H](NC(=O)c2ccc(F)cc2)[C@H](CO)O1)NCc1ccncn1

(cont.)
MLL AF4-AF9 inh | Molecule
-2.5 | Cc1cccc(S(=O)(=O)N2CCCCN3[C@H](C2)[C@H](c2ccc(C#C[C@@H](C)O)cc2)[C@@H]3CO)c1
0.1 | Cc1noc(C)c1NC(=O)N(C)C[C@H]1OCCCC[C@H](C)Oc2ccc(NC(=O)CCC(F)(F)F)cc2C(=O)N([C@@H](C)CO)C[C@@H]1C
-1.4 | C/C=C/c1ccc([C@H]2[C@@H](CO)N(C(C)=O)[C@@H]2CN(CCC)C(=O)C2CCC2)cc1
-1.3 | CC(C)NC(=O)N(C)C[C@@H]1Oc2c(NS(=O)(=O)c3ccc(F)cc3)cccc2C(=O)N([C@@H](C)CO)C[C@@H]1C
0.1 | Cc1noc(C)c1S(=O)(=O)N(C)C[C@@H]1OCCCC[C@@H](C)Oc2ccc(NC(=O)Nc3ccc(F)cc3)cc2C(=O)N([C@@H](C)CO)C[C@H]1C
-5.5 | O=C(Nc1ccccc1)N1CCCCN2[C@@H](CO)[C@@H](c3ccc(C#Cc4cccnc4)cc3)[C@@H]2C1
-4.0 | CCOC(=O)C1=C[C@@H](CC)N(S(=O)(=O)c2ccc(C)cc2)[C@H]1c1cccc(Cl)c1
3.8 | C[C@@H]1CN([C@@H](C)CO)C(=O)Cc2cc(NC(=O)Nc3ccccc3)ccc2O[C@@H]1CN(C)CC1CC1

Continued:
MLL AF4-AF9 inh | Molecule
-7.5 | C/C=C/c1ccc([C@@H]2[C@@H](CO)N(C(=O)c3cnccn3)C23CN(C(=O)C2CC2)C3)cc1
-1.9 | CN(C)CCCNC(=O)[C@H]1[C@H](CO)[C@H]2Cn3c(cccc3=O)[C@H]2N1C(=O)Nc1ccccc1
-1.6 | c1ccc2c(c1)ccc1ccccc12
-4.9 | O=C(C1CCOCC1)N1CC(=O)N2[C@H](CO)[C@@H](c3ccc(Br)cc3)[C@H]2C1
-2.6 | C[C@@H]1CN([C@H](C)CO)C(=O)Cc2cc(NC(=O)Cn3cnnn3)ccc2O[C@H]1CN(C)S(=O)(=O)c1ccccc1
-0.7 | C[C@@H]1CN([C@H](C)CO)C(=O)Cc2cc(NS(=O)(=O)c3cccs3)ccc2O[C@H]1CN(C)S(C)(=O)=O
-2.1 | Cc1noc(C)c1NC(=O)Nc1ccc2c(c1)C(=O)N([C@H](C)CO)C[C@H](C)[C@H](CN(C)C(=O)CCCN(C)C)OCCCC[C@H](C)O2
-75 | CCOC1=C2[C@@H](CN(S(=O)(=O)c3ccc(C)cc3)[C@H]2c2ccc(Cl)cc2)[C@H]2C(=O)N(c3ccccc3)C(=O)[C@H]2C1

(cont.)
MLL AF4-AF9 inh | Molecule
7.4 | C[C@@H]1CN([C@H](C)CO)C(=O)c2cc(NC(=O)Nc3ccc4c(c3)OCO4)ccc2O[C@@H](C)CCCCO[C@@H]1CN(C)C(=O)C1CCCCC1
-0.5 | O=C(C[C@@H]1CC[C@@H]2[C@H](COC[C@@H](O)CN2C(=O)Nc2ccc(Cl)c(Cl)c2)O1)NCc1ccc(Cl)c(Cl)c1
-0.8 | Cc1noc(C)c1S(=O)(=O)Nc1ccc2c(c1)CC(=O)N([C@H](C)CO)C[C@H](C)[C@H](CN(C)CC1CC1)O2
-2.1 | C[C@@H]1CN([C@@H](C)CO)C(=O)c2cc(NC(=O)Nc3cccc4ccccc34)ccc2O[C@H]1CN(C)Cc1ccc(Cl)c(Cl)c1
-1.1 | C[C@H](CO)N1C[C@H](C)[C@H](CN(C)Cc2ccc3c(c2)OCO3)Oc2ccc(NC(=O)NC3CCCCC3)cc2C1=O
3.0 | C[C@@H]1CCCCO[C@H](CN(C)C)[C@H](C)CN([C@@H](C)CO)C(=O)c2cc(NS(=O)(=O)c3ccccc3)ccc2O1
-1.7 | O=C(C[C@@H]1CC[C@H](NC(=O)C2CCC2)[C@@H](CO)O1)Nc1nccs1
-2.9 | C[C@H]1CN([C@@H](C)CO)C(=O)c2cc(-c3ccc(C(=O)N(C)C)cc3)cnc2O[C@@H]1CN(C)C(=O)C1CC1
-9.6 | CC(=O)N(C)C[C@@H]1Oc2ncc(C#Cc3ccncc3)cc2C(=O)N([C@H](C)CO)C[C@H]1C
-3.4 | CO[C@@H]1CN(C)C(=O)c2ccc(NC(=O)C3CC3)cc2OC[C@H](C)N(C(=O)c2cnccn2)C[C@@H]1C
-0.8 | O=C(N[C@H]1CC[C@H](CCNS(=O)(=O)c2ccc(Cl)cc2)O[C@H]1CO)c1cccnc1

Some of the compounds tested; count on the stated rates, not on these rows.
